# KCNQ2 enhance = potentiators of rat KCNQ2 potassium channel; O88943; CHO-K1 KCNQ2, FluxOR thallium flux fluorescence; stronger effect = higher value; B-score at 10 µM; 310,000 compounds, 0.54% hits; AID 2239;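 active = fluorescence ratio B-score at least 3 SD of library B-scores, with initial fluorescence B-score within 3 SD, cut at about 5.3 in these data; same plate scores as AID 2156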;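 also: B-score of peak minus minimum over baseline fluorescence ratio after K+ and Tl+ stimulus; positive B-score means potentiation of KCNQ2 with more thallium influx and brighter signal; only the inactives scoring about 0 or higher are listed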
# Target sequence (O88943 whole entry, looked up): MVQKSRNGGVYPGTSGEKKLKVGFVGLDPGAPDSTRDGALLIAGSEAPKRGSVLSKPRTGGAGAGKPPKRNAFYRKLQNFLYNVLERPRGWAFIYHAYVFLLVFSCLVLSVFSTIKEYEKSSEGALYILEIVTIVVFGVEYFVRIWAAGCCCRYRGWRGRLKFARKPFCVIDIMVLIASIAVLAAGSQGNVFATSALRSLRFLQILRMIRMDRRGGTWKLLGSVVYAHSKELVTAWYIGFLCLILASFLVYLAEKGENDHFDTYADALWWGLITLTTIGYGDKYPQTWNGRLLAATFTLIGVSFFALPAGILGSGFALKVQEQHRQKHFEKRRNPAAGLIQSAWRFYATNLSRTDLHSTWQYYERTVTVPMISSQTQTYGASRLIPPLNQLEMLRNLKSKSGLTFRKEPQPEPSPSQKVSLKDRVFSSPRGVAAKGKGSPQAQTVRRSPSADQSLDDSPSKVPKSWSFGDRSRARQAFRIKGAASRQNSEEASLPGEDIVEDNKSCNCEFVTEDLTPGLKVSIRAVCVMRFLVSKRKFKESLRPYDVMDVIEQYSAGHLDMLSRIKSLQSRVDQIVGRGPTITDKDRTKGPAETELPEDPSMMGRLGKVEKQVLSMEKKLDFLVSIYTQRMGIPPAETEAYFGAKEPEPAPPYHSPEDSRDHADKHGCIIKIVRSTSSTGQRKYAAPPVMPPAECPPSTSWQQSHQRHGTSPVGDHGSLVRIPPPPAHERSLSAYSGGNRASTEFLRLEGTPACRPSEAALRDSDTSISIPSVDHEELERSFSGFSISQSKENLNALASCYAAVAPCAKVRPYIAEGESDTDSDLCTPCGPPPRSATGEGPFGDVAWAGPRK
# KCNQ2 enhance baseline = also measured in KCNQ2 enhance; calls as there; B-score; compound at 10 µM; measured here: initial fluorescence intensity artifact check;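 brightness before thallium and not channel activity; 0 = typical well and far values either way flag optical interference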
# Starred values were filed as active, the others as inactive. Only part of the results is shown; the hit share may differ from the screen's.
entry	structure	KCNQ2 enhance	KCNQ2 enhance baseline
1	CCc1cc(C(=O)N2CCCC(C(=O)c3cccc4ccccc34)C2)n(C)n1 (centres undefined)	3.4	-0.54
2	Cc1cc(C)n2nc(-c3cccc(Br)c3)cc2n1	0.17	0.92
3	CCOc1ccc(N(CC(=O)NC2CCCCC2)C(=O)CCC(=O)Nc2nccs2)cc1	0.17	2.5
4	Cc1ccc2c(c1)C1CN(C)CCC1N2C(=O)COc1ccc(N(C)S(=O)(=O)c2cccs2)cc1 (centres undefined)	0.81	-2
5	Cc1ccc(CSc2nnc(-c3ccco3)o2)cc1	0.14	-1.7
6	Cc1cc(C(=O)Nc2ccc(N3CCCCC3)cc2)no1	0.84	-0.57
7	COc1ccc(N2CCN(Cc3nc4c(c(=O)n(C)c(=O)n4C)n3CC(C)=O)CC2)cc1	0.12	0.54
8	O=C(CSc1nnc(CN2CCOCC2)n1-c1ccccc1)N1CCc2ccccc21	0.02	0.21
9	CC(C)Cn1c(SCC(=O)N(C)c2c(N)n(Cc3ccccc3)c(=O)[nH]c2=O)nc2ccccc21	0.45	-0.01
10	CCOC(=O)c1c(NC(=O)C2C3CCC(O3)C2C(=O)O)sc2c1CCCC2 (centres undefined)	0.34	0.18
11	O=C(Nc1ccc(Cl)cc1C(=O)NCc1cccnc1)c1ccc(Cl)cc1Cl	0.22	-0.13
12	CCOc1ccc2c3c(c(=O)oc2c1OCC)CCCC3	1.1	1.2
13	Cc1cccc(C)c1NC(=S)Nc1c(C)n(C)n(-c2ccccc2)c1=O	0.2	-0.16
14	CC(=O)c1cccc(NC(=O)N2CCCC2C(=O)NC2CCCCC2)c1 (centres undefined)	0.4	-0.11
15	CN(CCCNC(=O)CCC(=O)N1CCOc2ccccc21)Cc1ccccc1	0.86	-2.5
16	O=C(NCCC1=CCCCC1)c1cc(S(=O)(=O)N2CCOCC2)ccc1F	2.2	-0.26
17	CC(=O)Nc1cc2ccccc2oc1=O	0.48	-0.01
18	COc1ccc(-n2c(=S)[nH]c3cc(C(=O)NCc4ccccc4)ccc3c2=O)c(OC)c1	0.02	-0.46
19	Cc1cc(=O)[nH]c(N/N=C/c2sccc2C)n1	0.67	0.27
20	O=C1c2ccccc2S(=O)(=O)c2cc(C(=O)N3CCC(O)CC3)ccc21	1	0.67

# Continued; it opens with the 6 that closed the last part.
entry	structure	KCNQ2 enhance	KCNQ2 enhance baseline
15	CN(CCCNC(=O)CCC(=O)N1CCOc2ccccc21)Cc1ccccc1	0.86	-2.5
16	O=C(NCCC1=CCCCC1)c1cc(S(=O)(=O)N2CCOCC2)ccc1F	2.2	-0.26
17	CC(=O)Nc1cc2ccccc2oc1=O	0.48	-0.01
18	COc1ccc(-n2c(=S)[nH]c3cc(C(=O)NCc4ccccc4)ccc3c2=O)c(OC)c1	0.02	-0.46
19	Cc1cc(=O)[nH]c(N/N=C/c2sccc2C)n1	0.67	0.27
20	O=C1c2ccccc2S(=O)(=O)c2cc(C(=O)N3CCC(O)CC3)ccc21	1	0.67
21	CC(=O)Nc1nc(SCC(=O)Nc2nnc(C)s2)[nH]c(=O)c1NC(=O)c1cccs1	0.66	-0.53
22	COc1cccc(/C=N/n2nnnc2N)c1O	0.19	0.76
23	CCc1nnc(NS(=O)(=O)c2ccc(Nc3ccc4nonc4c3[N+](=O)[O-])cc2)s1	0.97	0.15
24	O=Cc1cn(CC(=O)N2CCCCCC2)c2ccccc12	0.12	0.24
25	CCC1=C(OC(=O)N(CC)CC)N2C(=O)OC(=NCCc3c[nH]c4ccccc34)[C@]2(Cc2ccccc2)[C@H]2C1=CC[C@H]1C(=O)NC(=O)[C@H]12	0.54	0.75
26	Fc1cccc(CSc2nc3ncccc3[nH]2)c1	1.2	-0.66
27	Cc1nc(SCC(=O)NC(=O)NCc2ccccc2)nc(C)c1C	1	2
28	CCC(OC(=O)c1ccco1)C(=O)NCc1ccc(OC)cc1 (centres undefined)	1.2	0.22
29	COc1cccc(C(=O)N/N=C/c2cn[nH]c2-c2ccc(OC)cc2OC)c1	1.3	-0.65
30	CCCOc1ccc(OCCOCCNCc2ccccc2)cc1	1.1	0.03
31	CN(C)c1ccc(/C=N/NC(=O)c2cc(-c3ccc4c(c3)OCO4)n[nH]2)cc1	0.06	-0.08
32	CCOc1c(C(N)=O)cc([N+](=O)[O-])cc1[N+](=O)[O-]	0.32	-3.6
33	Cc1ccccc1NS(=O)(=O)c1cc(S(C)(=O)=O)ccc1Cl	0.85	0.44
34	C=CCOC(=O)C(=O)/C=C/c1ccc2c(c1)Cc1ccccc1-2	0.1	-0.91
35	CSc1nc2ccc(NC(=O)C3CC(=O)N(Cc4ccco4)C3)cc2s1 (centres undefined)	1	0.17
36	COc1ccc(C(C)NC(=O)c2cccc([N+](=O)[O-])c2)cc1OC (centres undefined)	0.86	-0.73
37	CCOC(=O)CSc1ncnc2c1nnn2-c1ccc(F)cc1	0.01	3.3
38	COc1ccc(CN2C(=S)NC(C)(C)CC2(C)O)cc1 (centres undefined)	0.01	-1.5
39	Cc1ccc(C(c2sc3nc(C)nn3c2O)N2CCN(C(=O)c3ccco3)CC2)cc1 (centres undefined)	0.92	0.42
40	Cc1cc(C)c(S(=O)(=O)N2CCCC(C(=O)NC3CC3)C2)c(C)c1 (centres undefined)	0.94	0.32
41	CN(C)c1ccc(NC(=O)CCN2C(=O)c3cccc([N+](=O)[O-])c3C2=O)cc1	1	-0.35
42	Cc1occc1C(=O)N/N=C/c1c[nH]c2ccccc12	0.34	-1.2
43	CC(C)(C)c1ccc(C(=O)N2CCCC2)s1	0.24	-2.8
44	O=C1[C@@H]2CSCN2C(=O)CN1CCc1cccc(F)c1	1.1	0.36
45	O=C(CSc1nnc(-c2ccncc2)o1)c1cccc([N+](=O)[O-])c1	1.1	-0.43
46	O=C(CSc1nnc(-c2ccc(S(=O)(=O)N3CCCC3)cc2)o1)NCC1CCCO1 (centres undefined)	0.82	-0.3
47	CCC(C)NC(=O)CSC1=Nc2ccccc2C2=NC(CCC(=O)NCc3ccco3)C(=O)N12 (centres undefined)	0.84	-1.6
48	COCCCn1c(SCC(=O)Nc2nc3ccccc3s2)nnc1-c1ccoc1C	0.31	-0.03
49	CCc1ccc(NC(=O)C(C)OC(=O)c2ccc(NS(=O)(=O)c3ccc(C)c([N+](=O)[O-])c3)cc2)cc1 (centres undefined)	0.04	-1.4
50	COc1ccc(/C=C/C(=O)Nc2ccc3c(c2)CCC3)cc1OC	0.92	-0.64
51	Cc1ccc(OCC(=O)N(Cc2ccccc2)C(C)C)c([N+](=O)[O-])n1	0.91	1.2
52	O=C(NC(=S)Nc1ccc2oc(=O)ccc2c1)c1cccc(Cl)c1	0.04	1.7
53	O=C(NC(=S)N1CCN(c2ccccc2)CC1)c1c(F)cccc1F	2.5	0.22
54	CC(C)(C)CC(=O)Nc1ccc(-c2nnc3n2CCCCC3)cc1	1.9	-2.8
55	CC(C)(C)c1ccc(/C=C/C(=O)Nc2cccnc2)cc1	2.2	-0.14
56	CC1(C)N=C(N)N=C(N)N1c1ccc(Oc2ccc(Cl)cc2)c(Cl)c1	2.3	-2
57	O=C(Cn1ccc2ccccc2c1=O)NCCC(=O)N1CCCCC1	0.74	1.9
58	COc1ccc(NC(=O)Cn2nnc(C(=O)NCc3ccc(C)cc3)c2N)cc1Cl	0.57	0.66
59	CN1C(=O)C(=O)N(CC(=O)N2CCc3ccccc32)C1=O	0.03	0.49
60	Cc1ccnc(N2CCC(C(=O)Nc3ccc4c(c3)CCC4)CC2)n1	0.64	1.8
61	Cc1ccc(SCC(=O)Nc2ccc(F)cc2[N+](=O)[O-])cc1C	0.31	1.4
62	COc1ccccc1NC(=O)C1(C)Cc2ccccc2C(=O)O1 (centres undefined)	1.9	-0.34
63	CCCCN(C(=O)c1ccc(Br)o1)C1CCS(=O)(=O)C1 (centres undefined)	0.06	1.5
64	O=C(CSc1ncc(-c2ccccc2)n1-c1ccccc1)NCc1ccco1	0.06	0.27
65	Cc1c(NC(=O)OCc2ccccc2)c(=O)n(-c2ccccc2)n1C	0.14	0.26
66	CNC(=S)NCC(O)c1ccc([N+](=O)[O-])cc1 (centres undefined)	2.4	-1.2
67	O=C(O)c1ccc(-c2cccc([N+](=O)[O-])c2)o1	0.72	0.79
68	CCn1c2nc(SCCN3CCOCC3)nnc2c2cc(C)cc(C)c21	0.67	0.05
69	Cc1cc(C)nc(NC(=O)CSc2ccccn2)n1	0.31	0.95
70	COCc1cc(C2C(C(=O)c3ccco3)=C(O)C(=O)N2CCOCCO)ccc1O (centres undefined)	0.62	0.68
71	O=C(N/N=C/c1c(Cl)cccc1Cl)c1n[nH]c2c1CCCC2	1	1.3
72	CN1C(=O)C(O)(CC(=O)/C=C/C=C/c2ccccc2)c2ccccc21 (centres undefined)	0.2	-0.59
73	O=C1OCc2cc(NC(=O)C3COc4ccccc4O3)ccc21 (centres undefined)	0.51	-3
74	CC(OC(=O)c1ccc2c(=O)n3c(nc2c1)CCC3)C(N)=O (centres undefined)	1.5	2.3
75	CC(=O)NCc1cccc(CNC(C)=O)n1	1.7	-0.5
76	COC(=O)Nc1nncs1	0.46	0.74
77	CCc1cccc(Oc2nn[nH]n2)c1	0.35	-1.9
78	COC(=O)c1cc(Sc2c(Cl)cccc2Cl)ccn1	1.7	-1.7
79	Cc1ccc(S(=O)(=O)N(C)CC(=O)OCC(=O)c2c(N)n(C)c(=O)n(C)c2=O)cc1	1.8	1.2
80	Cc1ccc(OCCCC(=O)NCc2ccco2)c(C)c1	0.38	-0.08

# Next entries
entry	structure	KCNQ2 enhance	KCNQ2 enhance baseline
81	C=CC12C=CC=CN1C(C(=O)OC)=C(C(=O)OC)C(C(=O)OC)=C2C(=O)OC (centres undefined)	0.01	1.3
82	NS(=O)(=O)c1cccc(NC(=O)c2cccs2)c1	0.3	-0.77
83	Cc1c(NC(=O)CN2C(=O)NC(C)(c3ccc(Cl)cc3)C2=O)c(=O)n(-c2ccccc2)n1C (centres undefined)	2.5	-0.05
84	COC(=O)c1cc(NC(=O)Nc2ccccc2OC)cc(C(=O)OC)c1	1.9	-0.01
85	Fc1ccc(OCCCCCn2ccnc2)cc1	0.05	-0.57
86	O=C(O)c1cc(-c2ccc3c(c2)OCO3)nc2ccc(Br)cc12	2.6	0.32
87	Cc1c(C)c2ccc(OCC(=O)N3CC[C@@]4(O)CCCC[C@H]4C3)cc2oc1=O	0.56	-1
88	Cc1[nH]nc(SCC(=O)NC2CCCCC2)c1[N+](=O)[O-]	1.6	-1.2
89	Clc1ccc2[nH]cc(-c3nnnn3-c3ccccc3)c2c1	0.69	2
90	CN(C)Cc1c(O)ccc2c(-c3ccccc3)cc(=O)oc12	2.4	-0.59
91	CC(C)NC(=S)Nc1ccc(Oc2ccccc2)cc1	0.32	0.08
92	Cc1cc(-c2ccc(/C=N/n3cnnc3)o2)ccc1Cl	0.89	0.22
93	CC1CCCC(NC(=O)COC(=O)Cc2ccsc2)C1C (centres undefined)	0.81	-0.64
94	O=[N+]([O-])c1ccc(N/N=C/c2cccnc2)cc1	0.17	2.6
95	CCc1ccc(CNC(=O)CN2C(=O)COc3ccccc32)cc1	0.27	-0.04
96	Nc1nc(CSc2n[nH]c(-c3ccccc3)n2)nc(Nc2ccccc2)n1	1.1	0.15
97	O=C(Cn1cc([N+](=O)[O-])cn1)NCc1cc2ccccc2[nH]1	0.32	0
98	CC(Nc1ccc(N2CCOCC2)cc1)C(=O)N1c2ccccc2CC1C (centres undefined)	0.46	-0.57
99	NC1CCCCC1N=Cc1c(O)n(CCc2ccc(F)cc2)c(=O)[nH]c1=O (centres undefined)	0.52	-0.36
100	COC(=O)CN1C(=O)N/C(=C/c2ccccc2OC)C1=O	0.88	0.45
101	O=C(CN(CC1CCCO1)C(=O)CNS(=O)(=O)c1ccc(Cl)cc1)NCc1ccco1 (centres undefined)	0.03	0.59
102	CC(C)CN1CN(Cc2ccco2)CNC1=S	0.38	0.08
103	O=C(Nc1ccccc1)c1ccc2c(c1)OCO2	1.2	-0.51
104	CCOc1ccc(N=c2scc(-c3ccc(OC)cc3)n2CCO)cc1	0.22	0.21
105	CCOC(=O)c1ccc(NC(=S)N2CCSC2c2ccc(OC)cc2)cc1 (centres undefined)	0.04	0.43
106	CC(=O)Nc1ccc(NC(=O)CCOc2ccccc2C)cc1	0.85	0.63
107	O=C(CN1CCN(Cc2ccccc2)CC1)N1N=CCC1c1ccccc1 (centres undefined)	0.03	1.2
108	CCCCn1c(N)c(N(CC(C)C)C(=O)CCCc2cccs2)c(=O)[nH]c1=O	1.8	-0.05
109	CC1=NOC(=O)/C1=C\c1ccc(-c2ccc(Br)cc2C(=O)O)o1	1.2	0.01
110	COc1cc(NC(=O)c2cccnc2)ccc1-c1cc2ccccc2oc1=O	0.79	0.17
111	O=C(NCC(O)CO)c1csc(Nc2cccc3ccccc23)n1 (centres undefined)	0.43	-0.48
112	O=C(NCC(O)c1ccc([N+](=O)[O-])cc1)c1cccc(S(=O)(=O)N2CCOCC2)c1 (centres undefined)	0.3	1.1
113	COCCN(C(=O)COC(=O)CCOc1cccc(C)c1)c1c(N)n(Cc2ccccc2)c(=O)[nH]c1=O	0.8	-0.07
114	O=C(Nc1ncc(Cc2ccccc2)s1)c1cccs1	0.34	0.91
115	O=[N+]([O-])c1nn(-c2ccccc2)n(O)c1=NCCc1ccccc1	0.32	0.14
116	COc1ccc(NC(=O)CN(C)C(=O)c2cccnc2Sc2ccc(C)c(C)c2)cc1	0.68	-0.3
117	CCCc1cc(-c2n[nH]c(=S)n2CC(C)C)cs1	6.4*	1.1*
118	COc1ccc(N(CC(=O)NCc2ccc(Cl)cc2)S(=O)(=O)c2c(C)noc2C)cc1	0.88	0.42
119	NC(=O)c1ccsc1NC(=O)COC(=O)c1ccccc1NCc1ccco1	2.2	-0.66

# From PubChem
